# Bioassay records (PubChem BioAssay)
# BJeLR lethal: MLPCN primary cell-based screen for lethality selective to Ras in HRASV12 cells | inhibition, % (no concentration beside the values) | AID 1554, 2009 | BJeLR (HRASV12) viability, CellTiter-Glo ATP luminescence, 48 h; reference of the scale not given here | hit rate 0.17% among 300,000;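 active = replicate mean above 50%; inconclusive = above 50% but judged a plate artefact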;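 also: 50 nL library stock added to about 25 µL; numbers are from one replicate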
# Mtb hypoxia inh: PubChem AID 1159583; M. tuberculosis hypoxia-regulated fluorescent reporter, fluorescence; fluorescence inhibition, % (no concentration beside the values); hit rate 0.1% among 300,000;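 active = 35 to 45% if threefold the growth effect, above 45% if 1.5-fold the growth effect; inactive = the rest, general growth blockers included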;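 also: wells of about 50 µL received 100 nL stock; 0% = vehicle wells and 100% = reference inhibitor wells; whole bacteria with a GFP reporter of the hypoxia response; strong numbers were not always called active; many hits fall short of the cut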
# Autofluor counter: flagged as autofluorescent in microsphere protease counterscreen. compound autofluorescence counterscreen, microsphere flow cytometry; active compounds read high. fluorescence intensity (test concentration not listed). hit rate 3.1% among 360,000;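 active = at least 3 SD above the mean of all compounds, about 16000 in these data; inconclusive = too few beads counted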;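 also: 100 nL of 1 mM stock went into each well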
# PrP UTR inh: inhibition of PrP 5' UTR reporter expression; AID 488862, 2010; cell-based PrP 5' UTR mRNA reporter, plate reader; inhibition, % (test concentration not listed); hit rate 0.35% among 340,000;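 active = every replicate at 50% or more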;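 also: 0 = median of the neutral control wells; tested in H4 reporter cells; numbers are from one replicate; inactives centre near -14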
# RN4220 kill: growth inhibition of S. aureus RN4220, primary screen, OD600 | 16 h | inhibition, % (no concentration beside the values) | hit rate 0.33% among 330,000 | AID 1259311, 2017;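 active = z-score of -3 or lower and OD600 up to 0.18 on both plates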;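 also: plate controls were untreated cells for no effect and reference antibiotic for full effect; stock transfer was 100 nL into about 80 µL; one replicate is shown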
# Sa ugtP lethal: growth inhibition of ugtP-null S. aureus, primary screen, RN4220 ugtP deletion, OD600; growth inhibition, % (test concentration not listed); 16 h; some inactives read as strong as hits; hit rate 0.54% among 330,000;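 active = z-score under -3 and OD600 up to 0.15 on both plates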;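 also: plate controls were untreated wells for no effect and antibiotic for full effect; wells of about 80 µL received 100 nL stock; the first replicate is given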
# Mtb hypoxia inh growth: second read-out of Mtb hypoxia inh, no call of its own (marks repeat the call); growth inhibition, %; measured here: M. tuberculosis growth (absorbance);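 0% = vehicle and 100% = reference antibiotic; read after six days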
# An asterisk follows results filed as active; ? = inconclusive; . = no result given.
SMILES,BJeLR lethal,Mtb hypoxia inh,Mtb hypoxia inh growth,Autofluor counter,PrP UTR inh,RN4220 kill,Sa ugtP lethal
Cc1cc(-n2cnnn2)cc(C)c1S(=O)(=O)N(C)c1ccccc1,-2,0,-2,3711,-20,3.3,2
Cc1ccc(CC2C(=O)N(CC(=O)O)C(=O)C2C)cc1 (stereo not drawn),-6,14,0,9981,-7,2.3,5
COC(=O)Cn1cnc2scc(-c3ccc(C)cc3)c2c1=O,3,19,3,4648,-20,1.0,5
CCc1ccccc1NC(=S)Nc1cc(OC)c(NC(=O)C(C)C)cc1OC,-7,10,-2,3202,-6,5.3,9
CCN(CC)Cc1cc(C(C)(C)C)cc(N2CCOCC2)c1O,.,6,5,2843,73*,3.5,3
OC[C@@H]1CC[C@@H](Cc2ccc(-c3ccccc3)cc2)O1,.,1,3,3801,-9,4.4,9
CC[C@@]12C(=O)N(c3cccc(Br)c3)C(=O)N1[C@H](c1ccc(Br)cc1)[C@@H]1C(=O)N(C(C)(C)C)C(=O)[C@@H]12,1,.,.,3509,-1,.,.
COc1ccc(C(c2sc3nc(C)nn3c2O)N2CCc3ccccc3C2)cc1 (stereo not drawn),2,4,6,4190,-2,-12,-2
CCOC(=O)N1CCN(C(=O)COC(=O)C2CCN(S(=O)(=O)c3c(Cl)cccc3Cl)CC2)CC1,-5,5,1,?,-12,1.8,7
O=C(CCn1nnc(-c2cccs2)n1)N1CCc2ccccc2C1,2,5,1,4376,-48,1.4,6
CC(=O)Nc1ccc(S(=O)(=O)N2CCN(S(=O)(=O)c3ccc(F)c(F)c3F)CC2)cc1,-6,5,11,3506,1,2.1,-2
Cc1ccc(N(C)C(=O)c2cc(S(=O)(=O)N3CCCCC3)c[nH]2)cc1,13,15,6,6064,3,7.9,11
O=C(c1ccccc1)N1CCN(S(=O)(=O)c2ccc(Cl)c(C(F)(F)F)c2)CC1,.,8,4,6308,-75,-1.4,6
Cc1ccc(S(=O)(=O)N2CCN(C(=O)Cc3ccc(S(=O)(=O)N4CCOCC4)s3)CC2)cc1,3,0,7,5425,-18,0.0,7
O=S(=O)(Cc1ccccc1Cl)NCCc1ccc(F)cc1,1,10,11,3707,-31,1.9,1
CC(C)(C)NC(=O)c1ccc2c(c1)C1C3CCC(C3)C1C(c1ccccc1)N2 (stereo not drawn),-10,10,10,2468,-4,2.4,-3
O=C(Cn1nnnc1CN1CCOCC1)N1CCC(c2cccc(Cl)c2)C1 (stereo not drawn),-5,3,6,4261,8,2.3,7
O=C(Nc1ccc(Cl)cc1C(=O)c1ccccc1Cl)c1ccco1,-2,4,5,11566,-10,-1.2,12
O=C(NNc1ccccc1C(F)(F)F)c1sccc1Br,-3,7,12,4037,-16,0.1,0
CCN(Cc1ccccc1)C(=O)CCNS(=O)(=O)c1ccc2c(c1)CC(C)N2C(C)=O (stereo not drawn),7,0,3,5328,-13,1.7,2
Cc1cccc(C)c1NC(=O)CN(C)C(=O)c1ccccc1Sc1ccccc1C#N,.,-1,-4,8392,-7,6.1,0
Cc1c(C(=O)NN=Cc2ccc(O)c(Br)c2)sc(N)c1C#N,.,13,3,.,.,0.7,-10
N#Cc1c(-c2ccco2)ccn(Cc2ccc(F)cc2)c1=O,-10,20,1,3273,-12,2.1,2
COc1ccc(/C=C2\SC(=S)N(N3CCOCC3)C2=O)c(OC)c1,6,10,11,3072,-10,2.5,21
CN(C)C(=O)c1ccc(N/C=C(\C=O)c2nc3ccccc3o2)cc1,4,1,-2,4066,-11,6.2,24
CCOC(=O)COc1cc(-n2c(=S)[nH]c3ccccc3c2=O)c(Cl)cc1Cl,4,-4,-2,3977,0,2.2,-8
Cc1nc2cc(N3CCCCC3)c(NC(=O)c3ccncc3)cc2c(=O)n1Cc1ccccc1,.,.,.,3076,-3,0.6,3
Cn1c(N2CCN(C(=O)Nc3ccc(F)cc3)CC2)nc2ccccc21,-3,9,12,3387,-1,2.8,15
Oc1cccc(C=NN2CCCCC2)c1O,.,8,-2,.,.,6.2,1
CCCc1nc2ccccc2c(=O)n1NC(=O)c1c(O)c2cccc3c2n(c1=O)CCC3,-6,2,0,2874,-14,8.1,-8
CCc1nnc(N2C(=N)SCC2=O)s1,4,-7,2,3429,-6,4.6,11
O=C(NN(C(=O)C1CC1)c1nc2ccccc2s1)C1CC1,-12,10,1,2706,-34,4.2,2
COc1ncccc1-c1nnn(-c2ccc(F)cc2)n1,-5,10,0,3938,-28,7.0,0
COc1ccc(N2CCN(C(=O)C(=O)c3c(C)n(C)c4ccccc34)CC2)cc1,-9,0,-4,3449,-1,-3.9,1
O=C(CN1C(=O)S/C(=C/c2cccnc2)C1=O)N1CCOCC1,-2,0,0,2036,-10,-0.7,6
CCOC(=O)C1C2COc3ccccc3C2N2C(=O)C(CO)NC(=O)[C@@]12C (stereo partly drawn),.,14,14,.,.,6.4,4
C=CCn1c(C)cc(C)c(C#N)c1=O,-5,7,11,22789*,-2,8.5,-2
CCOc1cc(C(C(=O)NCC2CCCO2)N(C(=O)Cn2nnc3ccccc32)c2ccccc2C)ccc1O (stereo not drawn),0,15,6,3828,-28,4.9,-3
O=S1(=O)CCOC[C@H](Cc2ccccc2)N1Cc1ccc(Cl)cc1,-3,.,.,4362,-15,.,.
O=C(Cc1cccs1)Nc1ccccc1C(=O)O,1,.,.,3723,-32,0.2,7

# Brought forward from above: two compounds; new compounds follow.
SMILES,BJeLR lethal,Mtb hypoxia inh,Mtb hypoxia inh growth,Autofluor counter,PrP UTR inh,RN4220 kill,Sa ugtP lethal
O=S1(=O)CCOC[C@H](Cc2ccccc2)N1Cc1ccc(Cl)cc1,-3,.,.,4362,-15,.,.
O=C(Cc1cccs1)Nc1ccccc1C(=O)O,1,.,.,3723,-32,0.2,7
COc1ccc(N(Cc2cc3cccc(C)c3[nH]c2=O)S(=O)(=O)c2ccc(Cl)cc2)cc1,-3,5,-7,5363,-1,14,-10
O=[N+]([O-])c1ccc(Oc2cc(NC3CCCCCCC3)c([N+](=O)[O-])cc2[N+](=O)[O-])cc1,-4,20,10,3655,-25,6.4,5
O=C(c1ccc(Br)s1)N1CCN(C/C=C/c2ccccc2)CC1,7,8,4,22315*,-17,-1.8,15
Cc1ccc(NC(=O)c2cccc(Oc3ccc([N+](=O)[O-])cc3)c2)c(C(=O)O)c1,-4,7,4,4213,-4,7.5,5
O=C(c1ccccc1)c1cnc[nH]1,6,6,10,3570,4,4.0,10
CCc1cccc2sc(NC(=O)C3CC3)nc12,-9,7,7,5744,-11,1.4,4
Cc1cc(-c2ccc(C)c(S(=O)(=O)Nc3cc(C)on3)c2)on1,9,0,8,5169,-28,1.0,0
CCNc1nc(NCC)n2c(SCC(=O)Nc3ccc(C(F)(F)F)cc3[N+](=O)[O-])nnc2n1,-4,0,-2,2503,-16,9.9,3
O=C(c1ccc(Cn2cc([N+](=O)[O-])cn2)o1)N1N=C(C(F)F)CC1(O)C(F)F (stereo not drawn),-18,-6,5,22404*,-4,0.3,-7
CCOc1ccc(NC(=O)C2CCCN(C)C2)cc1 (stereo not drawn),-8,10,3,3310,-9,4.2,0
O=C(NCc1cccc(Cl)c1)c1ccc2c(c1)OCCO2,0,15,0,3346,-18,20,9
Cc1[nH]c2ccc(C(=O)OC(C)C(=O)N(C)c3ccccc3)cc2c1C (stereo not drawn),-3,-2,12,5552,-9,0.7,-10
COc1ccc(/C=C/C(=O)N2CC(C)OC(C)C2)cc1OC (stereo not drawn),-10,-6,-3,2955,-6,6.2,8
CN(C)CCOC(=O)CCCCCCCCC(=O)OCCN(C)C,4,5,-6,3533,-25,0.8,5
O=C(CN1C(=O)C2C3C=CC(C3)C2C1=O)OCC(=O)c1ccc(Br)cc1 (stereo not drawn),-4,6,-7,4308,-9,6.4,16
CCOc1ccc(C=NOCC(=O)Nc2ccc(OCc3ccccc3)cc2)cc1OC,.,-2,4,.,.,3.0,0
CN(CC(=O)Nc1ccc(Cl)c(C(F)(F)F)c1)C(=O)c1cccc2cccnc12,.,13,6,4045,-19,5.6,0
Cc1cc(C)n(-c2ccc(NC(=O)C3CCCCN3C(=O)c3ccoc3)cc2)n1 (stereo not drawn),-9,8,7,5268,-20,0.4,6
C=CCn1c(SCc2c(C)noc2C)nc2cc(C(=O)O)ccc2c1=O,-5,3,10,9158,-18,3.0,-3
C[n+]1cccc(O)c1SCc1ccccc1,-7,2,3,3082,-9,7.7,0
CCOC(=O)c1c(C)[nH]c(C)c1S(=O)(=O)NCc1cc(C)ccc1C,10,10,3,5705,-21,4.8,0
O=C(c1cnn2c(C(F)(F)F)cc(-c3cccs3)nc12)N1CCOCC1,1,16,8,2592,-23,9.6,-8
COc1ccc(NC(=S)NN2CCN(C)CC2)cc1,-3,6,13,3145,3,4.2,6
O=C(NCc1ccco1)/C(=C\c1ccc(F)cc1)NC(=O)c1ccco1,-2,2,-1,4818,-13,3.9,5
COc1ccc(S(=O)(=O)NC(C)C(=O)N2CCCCCC2)cc1 (stereo not drawn),-7,11,-3,3502,-13,3.5,-4
CN(C)c1ccc(-c2cc3ccccc3c(=O)o2)cc1,.,13,10,3890,5,2.6,-12
O=C(NN=Cc1ccc(OCCCF)cc1)c1ccc(C(F)(F)F)cc1,.,6,5,.,.,3.3,0

# Among those listed so far, 13 have fluorine.
SMILES,BJeLR lethal,Mtb hypoxia inh,Mtb hypoxia inh growth,Autofluor counter,PrP UTR inh,RN4220 kill,Sa ugtP lethal
CC(=O)Nc1ccc(S(=O)(=O)N2CCN(S(=O)(=O)c3ccc(F)c(F)c3F)CC2)cc1,-6,5,11,3506,1,2.1,-2
O=C(c1ccccc1)N1CCN(S(=O)(=O)c2ccc(Cl)c(C(F)(F)F)c2)CC1,.,8,4,6308,-75,-1.4,6
O=S(=O)(Cc1ccccc1Cl)NCCc1ccc(F)cc1,1,10,11,3707,-31,1.9,1
O=C(NNc1ccccc1C(F)(F)F)c1sccc1Br,-3,7,12,4037,-16,0.1,0
N#Cc1c(-c2ccco2)ccn(Cc2ccc(F)cc2)c1=O,-10,20,1,3273,-12,2.1,2
Cn1c(N2CCN(C(=O)Nc3ccc(F)cc3)CC2)nc2ccccc21,-3,9,12,3387,-1,2.8,15
COc1ncccc1-c1nnn(-c2ccc(F)cc2)n1,-5,10,0,3938,-28,7.0,0
CCNc1nc(NCC)n2c(SCC(=O)Nc3ccc(C(F)(F)F)cc3[N+](=O)[O-])nnc2n1,-4,0,-2,2503,-16,9.9,3
O=C(c1ccc(Cn2cc([N+](=O)[O-])cn2)o1)N1N=C(C(F)F)CC1(O)C(F)F (stereo not drawn),-18,-6,5,22404*,-4,0.3,-7
CN(CC(=O)Nc1ccc(Cl)c(C(F)(F)F)c1)C(=O)c1cccc2cccnc12,.,13,6,4045,-19,5.6,0
O=C(c1cnn2c(C(F)(F)F)cc(-c3cccs3)nc12)N1CCOCC1,1,16,8,2592,-23,9.6,-8
O=C(NCc1ccco1)/C(=C\c1ccc(F)cc1)NC(=O)c1ccco1,-2,2,-1,4818,-13,3.9,5
O=C(NN=Cc1ccc(OCCCF)cc1)c1ccc(C(F)(F)F)cc1,.,6,5,.,.,3.3,0

# No enrichment for hits. Share with any hit: about 4%.
